Bioassay records: PubChem BioAssay, several laboratories
Arbovirus inh: antivirals against arbovirus infection, primary screen, cell-based, full library, 10K replicate subset | arbovirus infection cell-based antiviral screen | inhibition, % at 10 µM | 200,000 tested, 0.37% active;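 active = inhibition from about 30%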;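 note: bluetongue infection of BSR cells; cell survival read as ATP light after 72 h; 0% = infected wells without compound and 100% = uninfected wells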
Mtb betalactam: beta-lactam sensitization of Mtb H37Rv, H37Rv. M. tuberculosis H37Rv growth with meropenem, percent inhibition; hits of this screen are not shown here. 330,000 tested, 0.27% active. AID 434955, 2010. inhibition, % at 25 µM;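 active = about 74% or more and at least 40 points above the plate without the antibiotic, then above 30% in a dose series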;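 note: growth measured after seven days incubation then overnight dye step; 0% = bacteria only wells and 100% = bacteria with antibiotic; twin plates without the antibiotic show which effects depend on it; some results filed as inactive read as strong as hits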
Mtb H37Rv: M. tuberculosis H37Rv growth inhibitors, H37Rv strain (AID 1626). M. tuberculosis H37Rv growth inhibition; higher % means a stronger effect. inhibition, % at 10 µM; hits with a dose series show IC50 in µM. 220,000 tested, 0.95% active;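 active = confirmed in a dose series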;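 note: bacteria incubated seven days before Alamar blue readout; 0% = bacteria only wells and 100% = bacteria with antibiotic wells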
YopH inh: YopH tyrosine phosphatase inhibitors, primary screen, biochemical, fluorescence Ex485/Em525 | AID 898, 2007 | 140,000 tested, 0.16% active | inhibition, %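 (about 10 µM by stock and volumes)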;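 active = inhibition of 50% or more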;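 note: controls were vehicle for no effect and minimum signal wells for full effect; inactives centre near -20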
RecA intein inh: Mtb RecA intein splicing inhibitors, primary screen, biochemical, fluorescence, HTS | 290,000 tested, 0.75% active | cell-free RecA intein splicing | inhibition, %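 (about 9 µM by stock and volumes)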; in the data active = inhibition above about 30%;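 note: 0% = vehicle wells and 100% = reference inhibitor control wells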
Target sequence (P9WHJ3 whole entry, looked up): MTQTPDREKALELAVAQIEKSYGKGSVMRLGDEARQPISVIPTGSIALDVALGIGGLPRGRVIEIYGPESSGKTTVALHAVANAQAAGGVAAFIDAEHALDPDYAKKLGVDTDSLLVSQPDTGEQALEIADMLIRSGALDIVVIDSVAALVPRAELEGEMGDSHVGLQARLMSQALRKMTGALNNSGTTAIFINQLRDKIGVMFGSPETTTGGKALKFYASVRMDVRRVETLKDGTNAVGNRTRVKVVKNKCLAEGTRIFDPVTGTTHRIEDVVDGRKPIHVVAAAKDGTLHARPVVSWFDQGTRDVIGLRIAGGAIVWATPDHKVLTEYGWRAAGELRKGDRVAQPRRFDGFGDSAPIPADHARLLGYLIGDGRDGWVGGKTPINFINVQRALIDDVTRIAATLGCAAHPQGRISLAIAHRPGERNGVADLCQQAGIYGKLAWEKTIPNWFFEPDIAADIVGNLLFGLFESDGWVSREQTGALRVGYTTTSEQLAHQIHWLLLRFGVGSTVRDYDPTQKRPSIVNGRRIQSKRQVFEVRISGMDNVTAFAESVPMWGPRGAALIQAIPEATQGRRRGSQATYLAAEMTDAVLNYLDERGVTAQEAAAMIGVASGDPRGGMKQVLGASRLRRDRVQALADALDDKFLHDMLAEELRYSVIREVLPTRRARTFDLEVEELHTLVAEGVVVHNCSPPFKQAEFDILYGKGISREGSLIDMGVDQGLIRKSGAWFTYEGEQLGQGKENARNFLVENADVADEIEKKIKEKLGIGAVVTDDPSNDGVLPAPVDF
Arbovirus inh repeat: recorded beside Arbovirus inh, whose call it bears; inhibition, %; measured here: 10K subset replicate screen; many hits read low in the repeat;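 first of two repeat runs on a subset; 0% = infected and 100% = uninfected wells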
Active calls of the source: *; · = no result given.

SMILES	Arbovirus inh	Mtb betalactam	Mtb H37Rv	YopH inh	RecA intein inh	others
CCC1CCCCN1C(=O)CSc1nnc(CNC(=O)COc2ccc(Cl)cc2)o1 (stereo unspecified)	0	-4	1%	-15	-1.9
COc1cc(C2c3c(-c4ccccc4)n[nH]c3C(=O)N2c2ccccc2)ccc1O (stereo unspecified)	8	91	8%	-40	19
CCOc1ccc(-c2c(C(=O)N/N=C/c3ccc(Cl)cc3)nnn2-c2nonc2N)cc1	·	6	·	·	-1.5
CC1CN(C(=O)c2ccc(S(=O)(=O)Nc3ccccc3Cl)cc2)CC(C)O1 (stereo unspecified)	·	-11	·	·	-1.3
COc1cc(C(=O)NCCc2ccc(F)cc2)c([N+](=O)[O-])cc1OC	-4	3	-3%	-31	-0.4
Cc1cc(OCC(=O)NCCc2cccc(F)c2)c2c(C)cc(=O)oc2c1	·	9	·	·	0.4
CCNC(=S)N1CCN(S(=O)(=O)c2ccc(C)cc2)CC1	5	-9	-1%	·	-2.4
Cc1cc(C)c(C)c(S(=O)(=O)N(C)C2CCN(C)CC2)c1C	·	-5	·	·	0.5
Nc1c(C(=O)c2cccs2)oc2ccccc12	-2	-6	-18%	-12	-15
Cc1ccccc1CN1[C@@H](C(C)C)COCCS1(=O)=O	·	2	3%	·	-4.5
Fc1ccc(Oc2cnc3ccccc3n2)cc1	6	8	·	·	1.1
O=C(CSc1nnc(CNC(=O)c2c(F)cccc2F)o1)NCCc1ccccc1	·	-6	·	·	-0.3
COc1cc(C2NC(=S)NC3=C2CCc2ccccc23)cc(OC)c1OC (stereo unspecified)	-2	-1	-4%	-3	14
N#Cc1c(Nc2ccccc2)s[nH]c1=O	·	-2	-9%	·	0.7
O=C(Nc1ccc(S(=O)(=O)Nc2cnc3ccccc3n2)cc1)c1ccc(Br)o1	11	-7	-6%	31	-0.1
CC(C)CNC(=O)COC(=O)CCC(=O)c1ccc(F)cc1	0	-6	-6%	-24	3.6
O=C(CC(=O)Nc1cccnc1)Nc1cccnc1	·	-1	·	·	-2.3
O=C(c1ccc(NS(=O)(=O)c2ccc3[nH]c(=O)[nH]c3c2)cc1)N1CCCCC1	·	30	·	·	-1.4
CCOc1nc(NCCO)nc(Nc2cc(Cl)ccc2OC)n1	-2	7	3%	·	3.1
COc1ccc(C)cc1NC(=O)C1CCN(C(=O)c2ccco2)CC1	·	-9	·	·	-3.1
CC(C)(C)NC(=O)c1cnn2c1NC(c1ccc(F)cc1)CC2C(F)(F)F (stereo unspecified)	-6	13	2%	-23	-0.8	Arbovirus inh repeat=16
O=Cc1cnc(N2CCCCC2)s1	2	48	65%	·	·
O=C1/C(=C/c2ccncc2)SC(=S)N1N1CCOCC1	·	4	13%	·	0.6
Cc1ccc(C(=O)NCCCc2ccccc2)s1	0	-2	5%	-47	3.7
Cc1nnsc1C(=O)N/N=C/c1c(F)cccc1Cl	15	0	-2%	·	-1.2
Cn1c(CCCNC(=O)c2cccs2)nc2ccccc21	7	8	-4%	-30	-0.2
CCOC(=O)C(=CNc1ccc(Oc2cncc(Cl)c2)nc1)C(=O)OCC	·	62	3%	·	-2.2
O=C1CN(c2ccccc2)C(=S)N1C(=O)c1ccc(Br)cc1	·	7	·	·	3.8
C=C(C)CSc1nnc([C@@H]2CCCN2C(=O)OC(C)(C)C)o1	-2	-4	-3%	-22	2.0
CCN(C(=O)c1ccc2c(OC)n(CC)nc2c1)c1ccc(OC)cc1	-6	2	-12%	-12	-27
COc1ccc(NC(=O)CSc2ccc(-c3cccnc3)nn2)c(OC)c1	·	7	·	·	1.3
CC(=O)n1c(-c2ccccc2)c(-c2ccccc2)n(C)c1=O	·	-4	·	·	1.8
O=C(NCC(=O)N(c1cccnc1)C(C(=O)NC1CCCC1)c1cccs1)c1ccco1 (stereo unspecified)	4	-2	1%	·	0.6
COc1ccc(NC(=O)CCNS(=O)(=O)c2cc(Br)cnc2N)cc1OC	·	-2	·	·	1.8
O=C(Nc1cccc(NC(=O)c2cccc(Cl)c2)c1)c1cccnc1	·	-8	·	·	-2.4
O=C(COc1cccnc1[N+](=O)[O-])Nc1cc(S(=O)(=O)N2CCCCC2)ccc1Cl	·	-1	6%	·	2.8
CCC(C)(C)n1nnnc1C(c1ccccc1OC)N1CCN(C(=O)c2ccco2)CC1 (stereo unspecified)	·	4	·	·	1.4
O=C(O)c1ccccc1-c1ccccc1C(=O)Nc1nccs1	2	42	2%	·	-1.9
CC1CN(C2CCN(S(=O)(=O)Cc3ccccc3)CC2)CC(C)O1 (stereo unspecified)	-3	2	-2%	-51	0.6
CCn1c(=O)c2cc(C(=O)Nc3ccc(OC)cc3OC)sc2c2ccccc21	·	3	-1%	·	-20
Cc1cc(Cl)ccc1OC(C)C(=O)Nc1ccccc1N1CCOCC1 (stereo unspecified)	4	2	·	-38	20
COC(=O)c1c(NC(=O)C(=O)NCCCN2CCOCC2)sc2c1CCC2	·	6	·	·	-4.1
COc1ccc(S(=O)(=O)N(C)C)cc1NCC(=O)Nc1ccc(Br)c(C)c1	-9	6	8%	·	4.9
Cc1cccc(N=C2NC(=O)/C(=C/c3cccs3)S2)c1	9	66	22%	-14	3.2
CCOc1ccc(-n2cnnn2)cc1S(=O)(=O)N1CCC(C)CC1C (stereo unspecified)	0	2	6%	·	1.3
CC(C)(C)c1csc(NC(=O)c2ccc(Cl)s2)n1	-17	95	10%	-43	10
COc1cc(C(=O)N2CCN(C(=O)C3COc4ccccc4O3)CC2)cc(OC)c1OC (stereo unspecified)	·	3	·	·	-0.2
O=C(N[C@@H](Cc1ccc(O)cc1)C(=O)O)c1ccc(C(F)(F)F)cc1	5	-3	-8%	·	-1.2
CCc1ccc(OCC(=O)NNC(=O)c2nn(CC)c(=O)c3ccccc23)cc1	1	3	2%	·	1.3
Cc1ccc(Nc2cnn(C34CC5CC(CC(CC(=O)O)(C5)C3)C4)c(=O)c2Cl)c(Cl)c1	3	-4	-2%	·	-1.4
Cc1ccccc1C1CC(c2cccs2)Nc2nnnn21 (stereo unspecified)	-1	7	1%	·	-2.6
CC(=O)Nc1ccc(NS(=O)(=O)c2ccc(-c3cnc(C4CC4)o3)cc2)cc1	·	-2	·	·	-0.6
CC(C)n1cnc2c(NCc3ccccc3)nc(NCc3ccccc3)nc21	·	85	3%	·	4.4
O=C1c2ccccc2C(=O)N1Cc1nc2ccccc2c(=O)n1-c1ccccn1	3	-1	-1%	-34	·
O=C(CCC1CCCN(C(=O)c2ccc3cc[nH]c3c2)C1)N1CCN(c2ccccn2)CC1 (stereo unspecified)	-5	-2	-4%	·	-1.5
COc1ccccc1NC(=O)CCNS(=O)(=O)c1ccc2[nH]c(=O)oc2c1	·	-2	·	·	0.5
COc1cc(C(=O)NCC(c2ccco2)N(C)C)cc(OC)c1OC (stereo unspecified)	-1	-6	·	-18	-1.5
COCCN1Cc2cccc(C(=O)NCc3ccccc3OC)c2C1=O	-3	-5	2%	-32	-2.3
Cc1ccnc(N2CCC(C(=O)NC3CCCCCC3)CC2)n1	1	-5	-14%	-27	0.2
Cc1ccccc1OCCC(=O)OCC(=O)Nc1c(C)nn(-c2ccccc2)c1C	·	-7	·	·	1.7

Compounds above that have a nitro group on carbon, in the order listed:
SMILES	Arbovirus inh	Mtb betalactam	Mtb H37Rv	YopH inh	RecA intein inh	others
COc1cc(C(=O)NCCc2ccc(F)cc2)c([N+](=O)[O-])cc1OC	-4	3	-3%	-31	-0.4
O=C(COc1cccnc1[N+](=O)[O-])Nc1cc(S(=O)(=O)N2CCCCC2)ccc1Cl	·	-1	6%	·	2.8

Next section
SMILES	Arbovirus inh	Mtb betalactam	Mtb H37Rv	YopH inh	RecA intein inh	others
Cc1cc(C)cc(NC(=O)Nc2cc(-c3ccccc3)nn2C)c1	·	0	3%	·	2.3
O=C(/C=C\c1ccco1)NC(=S)Nc1ccccc1O	·	78	32%	·	-1.5
CCOC(=O)C1CCCN(C(=O)c2cc(-c3ccccc3)nc3ccccc23)C1 (stereo unspecified)	2	-3	4%	·	1.5
O=C(NCc1ccc(Cl)cc1)C1CCN(S(=O)(=O)c2cccs2)CC1	·	3	·	·	-2.9
COc1cc(SC)ccc1C(=O)NCCOc1ccc(C)c(C)c1	3	69	6%	-16	27
COc1ccc(NC(=S)NC(NC(=O)CF)C(Cl)(Cl)Cl)c([N+](=O)[O-])c1 (stereo unspecified)	1	-3	-6%	-27	0.2
CCCC1CC(CSC(=N)N)OC1=O (stereo unspecified)	3	54	-7%	-5	-4.8
CC(=O)c1cccc(NC(=O)CSc2nnc(C(C)N(C)C)n2Cc2ccccc2)c1 (stereo unspecified)	·	11	·	·	1.8
Cc1c(C(=O)O)oc2ccc(S(=O)(=O)NC3CCCCCCC3)cc12	10	-2	-6%	-22	2.0
COc1cccc(/C=N/NC(=O)Cn2cnc3c2c(=O)n(C)c(=O)n3C)c1	·	-10	-8%	·	4.7
COc1ccc(C(=O)N2CCCCC2)cc1S(=O)(=O)Nc1cccc(C(=O)O)c1	4	10	-4%	-7	·
Cc1ccc2c(c1)c1c(n2CC2COC(C)(C)O2)C(=O)CCC1 (stereo unspecified)	6	9	-6%	-11	-2.0

Molecules from the list above containing a thiophene ring, fused or not:
SMILES	Arbovirus inh	Mtb betalactam	Mtb H37Rv	YopH inh	RecA intein inh	others
Nc1c(C(=O)c2cccs2)oc2ccccc12	-2	-6	-18%	-12	-15
Cc1ccc(C(=O)NCCCc2ccccc2)s1	0	-2	5%	-47	3.7
Cn1c(CCCNC(=O)c2cccs2)nc2ccccc21	7	8	-4%	-30	-0.2
O=C(NCC(=O)N(c1cccnc1)C(C(=O)NC1CCCC1)c1cccs1)c1ccco1 (stereo unspecified)	4	-2	1%	·	0.6
CCn1c(=O)c2cc(C(=O)Nc3ccc(OC)cc3OC)sc2c2ccccc21	·	3	-1%	·	-20
COC(=O)c1c(NC(=O)C(=O)NCCCN2CCOCC2)sc2c1CCC2	·	6	·	·	-4.1
Cc1cccc(N=C2NC(=O)/C(=C/c3cccs3)S2)c1	9	66	22%	-14	3.2
CC(C)(C)c1csc(NC(=O)c2ccc(Cl)s2)n1	-17	95	10%	-43	10
Cc1ccccc1C1CC(c2cccs2)Nc2nnnn21 (stereo unspecified)	-1	7	1%	·	-2.6
O=C(NCc1ccc(Cl)cc1)C1CCN(S(=O)(=O)c2cccs2)CC1	·	3	·	·	-2.9

(list continues)
SMILES	Arbovirus inh	Mtb betalactam	Mtb H37Rv	YopH inh	RecA intein inh	others
Cc1ccc(OCCC(=O)OCC(=O)NC2CCCC2)cc1	·	2	·	·	3.0
O=C(C1CCN(C2CC(=O)N(c3cccc(Cl)c3)C2=O)CC1)N1CCCC1 (stereo unspecified)	-3	37	-6%	-30	16
CCCn1nc(NS(=O)(=O)c2cccc3nonc23)c2cc3cccc(C)c3nc21	·	-4	·	·	11
CN1CCN(/N=C/c2c[nH]c3ccccc23)CC1	·	-5	-16%	·	-4.2
Cc1cc(F)c(F)c(C(=O)N2CCOCC2)c1Cl	2	-5	-7%	-6	-1.6
CCc1nc(Nc2cccc(O)c2)c2oc3ccccc3c2n1	·	6	·	·	2.5
COc1ccc(CCNC(=O)CC(NC(=O)c2ccccc2Cl)c2ccccc2)cc1 (stereo unspecified)	-7	8	5%	-40	0.4
CCc1ccccc1NNC(=O)CCc1ccccc1	·	-4	-10%	·	·

The list is partial; rates above refer to the full screens.
